# Calb FLC: C. albicans growth modulation with fluconazole. C. albicans CaCi-2 (fluconazole-resistant clinical isolate) + fluconazole, Alamar Blue growth, 48 h. growth inhibition, % (test concentration not listed). AID 1979. actives 0.57% (n = 300,000);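 active = most replicates above 75%; inconclusive = exactly half above 75%; inactive = most below 75%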;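 note: all wells also contain fluconazole at 8 µg/ml as a sub-toxic cotreatment; 0% = median of DMSO wells and 100% = median of geldanamycin control wells; wells of about 8 µL received 7.5 nL stock; the first replicate is given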
# AF4-AF9 inh: MLL-AF4/AF9 protein interaction inhibition. P42568. AlphaScreen, biotin-AF4 peptide binding to FLAG-AF9. inhibition, % at 10 µM. actives 0.47% (n = 350,000). AID 651704;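 active = every replicate reaching a set inhibition limit, whatever the replicate mean, cut at about 25% in these data; inconclusive = mean inhibition reaches that limit but some replicates miss it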;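 note: 0% = plate neutral control median and 100% = total signal loss; the record names both 10 and 1 µM as test concentration; the first replicate is given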
# RanGTP-Impb inh: inhibitors of RanGTP-importin-beta interaction, primary screen, biochemical, FRET, CFP-Ran, YFP-importin-beta, homogeneous. actives 1.1% (n = 300,000). cell-free CFP-Ran/YFP-importin-beta FRET ratio. AID 2216. inhibition, % (test concentration not listed);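 active = most replicates above 15%; inconclusive = exactly half above 15%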;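 note: 0% = DMSO wells and 100% = Ran loaded with GDP instead of GTP; wells of about 40 µL received 100 nL stock; the first replicate is given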
# Vif TR-FRET: inhibitors of Vif binding to APOBEC3G peptide, primary screen, biochemical, TR-FRET, GST-Vif 1-94, biotin-A3G peptide, dose response retest (AID 1117319) | actives 0.57% (n = 260,000) | TR-FRET GST-Vif / biotin-A3G peptide binding; higher % means a stronger effect; test concentration not given here; strong numbers were not always called active | inhibition, %; hits with a dose series show IC50 in µM;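 active = above the screen mean plus three standard deviations and confirmed in dose response; inconclusive = results disagree or hit not tested in dose response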;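 note: Vif residues 1-94 fused to GST binding biotinylated APOBEC3G peptide 110-148; 0% = full assay without inhibitor and 100% = GST in place of GST-Vif; retest series ran down from 100 µM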
# LANA-H2B inh: blocks KSHV LANA binding to histone H2A/H2B. Q9QR71. cell-free LANA-H2A/H2B peptide, fluorescence polarization. inhibition, % (concentration not given with the values). actives 0.6% (n = 320,000). AID 2629; in the data active = inhibition mostly above about 10%, no sharp cut-off; inactive = mostly below about 6.7%;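 note: stock transfer was 7.5 nL into about 10 µL; 0% = median of vehicle wells and 100% = median of positive control wells; one replicate is shown; the record names a cut of 25% in any replicate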
# Target sequence (Q9QR71 whole entry, looked up): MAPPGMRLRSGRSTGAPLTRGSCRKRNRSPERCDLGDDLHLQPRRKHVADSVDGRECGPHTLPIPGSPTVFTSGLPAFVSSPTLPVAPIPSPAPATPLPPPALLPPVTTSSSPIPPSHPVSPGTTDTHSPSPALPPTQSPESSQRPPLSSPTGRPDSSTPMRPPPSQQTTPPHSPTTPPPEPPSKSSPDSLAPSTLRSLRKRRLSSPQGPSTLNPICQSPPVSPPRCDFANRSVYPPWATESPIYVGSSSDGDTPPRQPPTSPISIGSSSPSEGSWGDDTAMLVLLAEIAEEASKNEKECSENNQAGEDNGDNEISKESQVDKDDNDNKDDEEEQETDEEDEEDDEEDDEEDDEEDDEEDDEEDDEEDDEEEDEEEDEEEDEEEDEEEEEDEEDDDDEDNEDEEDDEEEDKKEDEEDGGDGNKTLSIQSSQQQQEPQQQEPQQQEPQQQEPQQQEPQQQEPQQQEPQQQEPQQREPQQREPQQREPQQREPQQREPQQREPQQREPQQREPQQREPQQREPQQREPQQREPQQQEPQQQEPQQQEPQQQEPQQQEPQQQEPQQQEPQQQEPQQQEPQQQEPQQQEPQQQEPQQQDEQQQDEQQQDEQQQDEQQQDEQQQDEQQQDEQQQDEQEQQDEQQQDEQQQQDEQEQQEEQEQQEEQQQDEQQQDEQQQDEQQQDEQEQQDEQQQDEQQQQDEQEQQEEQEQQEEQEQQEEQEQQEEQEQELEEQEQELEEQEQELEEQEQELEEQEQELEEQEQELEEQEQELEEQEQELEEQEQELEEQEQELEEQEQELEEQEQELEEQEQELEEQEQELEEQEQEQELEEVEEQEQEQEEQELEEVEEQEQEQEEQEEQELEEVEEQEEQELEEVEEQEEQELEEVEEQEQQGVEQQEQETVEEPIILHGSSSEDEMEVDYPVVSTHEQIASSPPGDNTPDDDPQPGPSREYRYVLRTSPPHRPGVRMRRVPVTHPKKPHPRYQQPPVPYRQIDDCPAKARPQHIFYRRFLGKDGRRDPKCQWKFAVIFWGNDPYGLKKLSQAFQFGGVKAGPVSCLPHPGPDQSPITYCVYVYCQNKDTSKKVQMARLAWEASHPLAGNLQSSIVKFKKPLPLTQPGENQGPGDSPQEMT
# A1 inh: inhibitors of the anti-apoptotic protein A1, read as caspase activation. MEF A1-2A-BIM cells, Caspase-Glo 3/7 luminescence, 3 h; percent of clofoctol response, vehicle zero. caspase activation, % (test concentration not listed). actives 0.066% (n = 330,000);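 active = over half of replicate activation scores above 10%, or exactly half above 10 with the replicate mean above 10; inconclusive = replicate mean below 10 yet half the replicates above 10; inactive = over half of replicates below 10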;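 note: wells of about 30 µL received 50 nL stock; many hits fall short of the cut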
# T cruzi repl: blocks replication of Trypanosoma cruzi; T. cruzi beta-gal in NIH3T3, luminescence, 90 h; inhibition, % (no concentration beside the values); actives 1.4% (n = 300,000);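 active = mean inhibition across valid replicates above about 55%, limit read from the data; inconclusive = mean below that limit but half or more replicates reach it; inactive = mean below it, under half of replicates reach it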;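 note: signal also drops with host cell toxicity which is not excluded here; 0% = plate median of DMSO wells and 100% = zero luminescence signal; higher percent means less beta-gal luminescence so fewer parasites; stock transfer was 50 nL into about 50 µL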
# Beta apoptosis: beta cell apoptosis inhibition; AID 435005; actives 0.8% (n = 300,000); protection from apoptosis, % (test concentration not listed); INS-1E cytokine-induced death, ATP luminescence, 48 h; percent of positive-control rescue, neutral wells zero;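 active = all replicates at 75% or more, or half of them and the mean; inconclusive = half reach 75% but not the mean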;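 note: 0% = cytokine-treated negative control wells and 100% = positive control rescue; higher means more ATP so stronger rescue from cytokine killing; wells of about 40 µL received 100 nL stock; the first replicate is given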
# Numbers without * were called inactive; ? = inconclusive; / = not tested or not shown; & = joins results of further samples.
SMILES,Calb FLC,AF4-AF9 inh,RanGTP-Impb inh,Vif TR-FRET,LANA-H2B inh,A1 inh,T cruzi repl,Beta apoptosis
Cn1nc(C(=O)Nc2sccc2C(N)=O)ccc1=O,10,/,3.7,-2%,0.3,-0.9,-3,-8
O=C(CSCc1ccc(Cl)cc1)NN=C1CCCCCC1,-6,/,3.7,/,1.7,1.4,-20,1
O=C(O)C1CCC(CNS(=O)(=O)c2ccccc2)CC1 (stereo not drawn),3,-1.9,1.0,-1%,2.7,-0.6,-7,-3
COc1ccc(C(=O)N/C(=C/c2cccnc2)C(=O)Nc2cccc(C(C)=O)c2)cc1OC,-7,0.7,6.1,/,9.2,0.3,-9,2
CCN1CCN(C(=O)c2ccc(Sc3ccccc3Cl)c([N+](=O)[O-])c2)CC1,14,/,2.1,/,-1.3,-0.6,-22,0
COc1ccc(N2CC(C(=O)N[C@H](C(=O)NC3CCCCC3)C(C)C)CC2=O)cc1 (stereo partly drawn),1,-0.9,-0.5,/,0.4,0.2,-16,-3
CN(C)C(=O)N1CCCC(C(=O)NCCc2ccccc2)C1 (stereo not drawn),3,/,1.4,11%,-1.3,1.1,-2,1
COc1ccc(S(=O)(=O)N2CCC(C(=O)N[C@H](C(=O)NCc3ccco3)C(C)C)CC2)cc1,6,-2.2,0.7,/,4.9,0.0,-17,-1
Cc1cc(C)nc(N2CCN(c3nnnn3-c3ccccc3)CC2)n1,-6,/,4.2,1%,-2.5,-0.7,5,-1
Cc1cc2oc(=O)cc(CSc3nnc(-c4cccs4)o3)c2cc1C(C)C,6,/,1.0,/,-5.6,-0.8,50,7
Cc1cc(-c2n[nH]c(=S)n2/N=C/C=C/c2ccco2)n[nH]1,2,-2.2,3.8,6µM*,-1.1,-0.7,0,-5
CC(C)NC(=S)N1CCN(c2ncccn2)CC1,0,-58,-2.3,2%,-1.8,-0.3,15,-4
CCCCn1c(N)c(N(CCOC)C(=O)c2cc(CC)c(C)s2)c(=O)[nH]c1=O,7,-5.9,?,-6%,0.0,0.3,2,-5
O=C(NNC(=O)C1CCN(Cc2ccccc2)CC1)c1cccs1,-4,0.0,-2.9,-4%,-2.4,0.9,5,-5
c1ccc(-c2nnc(SCc3nc4ccccc4[nH]3)n2Cc2ccco2)cc1,9,/,?,?,-1.4,-0.4,11,-7
O=C(c1ccc(S(=O)(=O)Nc2ccccc2)cc1)N1CCCC(C(F)(F)F)C1 (stereo not drawn),11,-1.1,2.1,/,2.9,1.5,11,4
Cc1onc(-c2ccccc2)c1C(=O)N1CCC(C)CC1,-5,/,4.4,16%,0.9,-0.2,4,-1
CCN(CC(=O)Nc1cc(Cl)ccc1OC)CC(=O)NC1CCS(=O)(=O)C1 (stereo not drawn),-5,0.5,-1.2,0%,-2.2,-0.4,1,-3
C#CCOc1nc2c(c(=O)n(C)c(=O)n2C)n1Cc1ccccc1,-2,4.8,?,-2%,3.6,1.2,-7,0
CC(OC(=O)c1cccc(N2C(=O)c3ccccc3C2=O)c1)C(=O)Nc1ccc(N(C)C)cc1 (stereo not drawn),-15,2.6,0.8,2%,2.7,-0.3,-17,3
CCc1ccc(-c2ccc(SCC(=O)NCC3CCCO3)nn2)cc1 (stereo not drawn),0,0.6,-0.9,-6%,1.2,0.1,-6,-4
CC1CCCCN1C(=O)COC(=O)/C=C/c1ccc2ccccc2n1 (stereo not drawn),32,-1.6,-1.0,4%,-2.8,-2.3,-7,-13
Cc1oc(-c2ccc(Cl)cc2)nc1CN1CCCC(C(=O)N2CCN(C(=O)c3ccco3)CC2)C1 (stereo not drawn),-11,3.5,-1.0,-7%,5.4,0.1,29,7
Cc1ccc2cccc(OCC(=O)N3CC(C)CC(C)C3)c2n1 (stereo not drawn),17,-2.5,-4.1,/,0.0,0.2,2,0
Cc1ccc(CNC(=O)CCc2ccc(S(=O)(=O)NCC(C)C)cc2)cc1,9,-0.6,?,-5%,-1.3,0.0,7,0
# Later entries.
SMILES,Calb FLC,AF4-AF9 inh,RanGTP-Impb inh,Vif TR-FRET,LANA-H2B inh,A1 inh,T cruzi repl,Beta apoptosis
CC(=O)CC(=O)Nc1ccc(C(N)=O)cc1,-26,-3.8,1.2,-10%,11,0.7,-19,-2
COc1ccc(-n2c(CCc3ccccc3)nnc2SCC(=O)NCc2ccccc2)cc1,-7,/,-2.3,-3%,0.5,-0.1,9,0
CN1C(=O)/C(=N/OC(=O)c2ccccc2Br)c2ccccc21,-5,-1.1,-13,/,-9.1,1.9,-14,-1
Cc1ccc(C(=O)NC(=S)Nc2ccccc2C(F)(F)F)cc1C,5,/,2.4,?,7.0,-0.7,8,-7
COc1ccccc1CNC(=O)N/C=C/c1ccc(Cl)cc1,-28,-1.8,-1.7,-6%,3.2,0.1,-4,-1
CN(c1cccc(NC(=O)c2ccc(C(C)(C)C)cc2)c1)S(C)(=O)=O,5,0.8,0.8,2%,-1.0,0.5,3,-5
C=CCN1C(=O)C(Cc2ccccc2Cl)SC1=Nc1ccc(C(=O)O)cc1 (stereo not drawn),0,9.4,-3.4,10%,-0.6,-0.5,-11,-8
C[C@H](NC(=O)NCc1ccc(F)cc1)C(=O)O,-17,/,-3.1,-2%,-0.4,0.5,-3,-5
S=C1SCN(Cc2cccnc2)CN1Cc1ccccc1,15,2.3,1.4,1%,-5.5,-0.4,1,-9
CCOc1ccc(CC(=O)C2=C(N3CCOCC3)CC(C)(C)CC2=O)cc1OCC,-4,-1.1,0.6,-4%,1.2,0.2,-2,-7
COc1ccccc1N1CCN(C(=O)C(C)NC(=O)c2ccco2)CC1 (stereo not drawn),/,0.0,/,6%,-5.0,0.1,/,-12
Cc1c(NC(=O)CN2c3cccc4cccc(c34)S2(=O)=O)c(=O)n(-c2ccccc2)n1C,-61,/,4.4,/,8.3,1.2,-1,-6
CCCc1cc(=O)n2[nH]c(NCc3cccs3)nc2n1,4,/,-1.9,-2%,0.0,0.3,-7,0
C=CCn1c(CCC(=O)Nc2ccc(C)c(Cl)c2)nnc1SCC(=O)Nc1ccccc1C,-14,/,-1.9,0%,-3.0,1.6,11,-5
O=[N+]([O-])c1ccc2cn[nH]c2c1,9,-3.0,-2.5,21%,1.8&11,-0.1,-14,-7
CC(C)C(=O)NC(c1ccccc1)c1cc([N+](=O)[O-])c2cccnc2c1O (stereo not drawn),0,1.6,-1.2,?,-2.0,-0.1,-2,91*
CN(c1ccc(OCC(=O)O)cc1)S(=O)(=O)c1ccc2ccccc2c1,-2,0.5,7.9,-7%,8.9,0.6,6,-2
COc1ccc(-n2nc3cc(C)c(NC(C)=O)cc3n2)cc1,19,-0.7,-0.1,-15%,1.2,-6.1,-5,-4
Cn1c(=O)c2ncn(CC(=O)O)c2n(C)c1=O,2,-1.0,2.4,13%,-12,-0.1,-13,-9
CCCCNC(=S)N(C)N=C1CCC(c2ccccc2)CC1 (stereo not drawn),22,7.0,-7.9,3%,-1.6,-0.3,-11,-1
Cc1cc(=O)n2cccc(O)c2n1,2,0.9,?,/,-1.8,0.3,3,-3
CCOc1ccc(C(=O)NC2CC(C)(C)NC(C)(C)C2)cc1,0,-7.4,6.8,/,-0.5,0.3,-1,-4
Cc1cc(C(=O)Nc2c(C)n(C)n(-c3ccccc3)c2=O)c2ccccc2n1,10,/,-3.7,-1%,0.2,1.7,1,-5
CC(C)(O)C#Cc1ccc(C(=O)NCc2ccccc2)s1,-10,/,-2.8,6%,3.0,-0.5,-5,3
Cn1cc(CN2CCCC(C(=O)Nc3ccc(-c4cccc(F)c4)cc3)C2)cn1 (stereo not drawn),22,8.8,-1.7,/,-2.7,1.5,23,16
# More records.
SMILES,Calb FLC,AF4-AF9 inh,RanGTP-Impb inh,Vif TR-FRET,LANA-H2B inh,A1 inh,T cruzi repl,Beta apoptosis
COc1ccc(OCC(=O)NNC(=O)c2cccs2)cc1,-6,/,-2.1,?,1.4,0.3,-8,2
CCC(CC)n1[nH]c(=O)cc1N,4,/,-8.6,26%,3.0,-0.3,-18,-5
Cc1c(C(=O)N2CCOCC2)c(S(=O)(=O)Nc2ccccc2)c(C)n1C,-6,0.2,2.9,6%,-2.1,0.8,-10,1
O=C(Nc1ccccc1Cl)C1CCCN(S(=O)(=O)c2ccc(-n3cnnn3)cc2)C1 (stereo not drawn),-12,-2.2,0.0,/,-0.3,0.8,8,4
COc1ccc(C)cc1Cn1c(S(C)(=O)=O)nc2ccccc21,11,/,1.7,0%,0.1,1.3,-7,-7
CC1CCN(C(=O)COc2ccccc2F)CC1,-7,/,6.0,-5%,1.2,0.3,-12,0
CC(=O)ON1C(C)(C)Cc2noc(N)c2C1(C)C,-4,/,-2.4,-2%,2.0,0.1,-8,-4
CCCCNc1nc(N)ncc1[N+](=O)[O-],5,1.0,0.4,6%,0.0,0.4,-19,-4
CS(=O)(=O)N1Cc2ccccc2CC1C(=O)OCC(=O)Nc1ccc2ccccc2c1 (stereo not drawn),-27,/,-3.9,2%,0.6,0.4,-14,-7
COc1cccc(C2C(C#N)=C(N)N(c3ncn[nH]3)C3=C2C(=O)CCC3)c1 (stereo not drawn),-26,/,-2.8,17%,-3.1,0.4,-7,-6
CCc1cccc(C)c1NC(=S)N1CCCCC1c1cccnc1 (stereo not drawn),-2,?,-1.2,0%,-4.5,1.2,2,-2
CN(C)c1ccsc1C(=O)NNS(=O)(=O)c1ccc(Cl)cc1,-7,-6.9,4.4,/,-5.9,-0.6,25,-2
COc1ccc(CCN2CCCC(CN(C)C(=O)c3cc(C)oc3C)C2)cc1 (stereo not drawn),-9,1.4,1.5,?,1.0,-0.1,63*,/
O=C(c1ccc(S(=O)(=O)Nc2ccc(F)cc2)cc1)N1CCN(C(=O)c2ccco2)CC1,/,/,-1.5,0%,0.4,-1.7,2,7
Cc1ccccc1C(=O)Nc1ccccc1Sc1ccccc1,17,/,3.2,/,-0.4,0.2,12,-4
Nc1nc(SCC(=O)Nc2ccc(C(F)(F)F)cc2)[nH]c(=O)c1NC(=O)c1ccc(F)c(F)c1,-4,-0.8,-1.5,-2%,-7.5,0.3,-7,-1
CC(C)(C)c1ccc(C(=O)NCC(=O)OCC(=O)Nc2ccccc2[N+](=O)[O-])cc1,6,/,6.1,7%,4.1,0.5,1,-2
COc1cc(/C=C(\C#N)C(=O)NCC2CCCO2)ccc1OCC(N)=O (stereo not drawn),-27,-9.2,-0.1,/,0.0,0.2,-4,-3
COc1ccc(/C=C/C(=O)N(CC(C)C)C2CCS(=O)(=O)C2)cc1 (stereo not drawn),28,0.5,5.0,-4%,0.1,0.0,18,-8
O=C(COC(=O)CNC(=O)c1cccc([N+](=O)[O-])c1)NCc1ccco1,-18,1.6,7.1,-8%,-0.4,-2.5,4,-2
CN(C)S(=O)(=O)c1ccc(C(=O)Nc2nnc(SCc3ccccc3)s2)cc1,17,-1.7,-1.3,8%,-7.4,0.6,-3,-2

# Limited to A1 inh, AF4-AF9 inh and RanGTP-Impb inh, for some of the entries so far:
SMILES | A1 inh | AF4-AF9 inh | RanGTP-Impb inh
Cc1ccccc1C(=O)Nc1ccccc1Sc1ccccc1 | 0.2 | / | 3.2
Nc1nc(SCC(=O)Nc2ccc(C(F)(F)F)cc2)[nH]c(=O)c1NC(=O)c1ccc(F)c(F)c1 | 0.3 | -0.8 | -1.5
